VDR inh: Inhibitors of the vitamin D receptor (VDR): qHTS; Vitamin D3 receptor (Homo sapiens), P11473; VDR-SRC2-3 peptide fluorescence polarization, 2 h; Potency, µM, for inactives: max response, negative = inhibition, usual class: inhibitors; 400,000 compounds, 0.93% hits; AID 504847, 2011; active means well fitted inhibition curve with a large enough effect; inconclusive means small, poorly fitted or top-dose-only effect, or another doubt; inactive means no such curve, though single readings can be large or run the other way; further: series mostly up to about 120 µM
Target sequence (P11473 whole entry, looked up): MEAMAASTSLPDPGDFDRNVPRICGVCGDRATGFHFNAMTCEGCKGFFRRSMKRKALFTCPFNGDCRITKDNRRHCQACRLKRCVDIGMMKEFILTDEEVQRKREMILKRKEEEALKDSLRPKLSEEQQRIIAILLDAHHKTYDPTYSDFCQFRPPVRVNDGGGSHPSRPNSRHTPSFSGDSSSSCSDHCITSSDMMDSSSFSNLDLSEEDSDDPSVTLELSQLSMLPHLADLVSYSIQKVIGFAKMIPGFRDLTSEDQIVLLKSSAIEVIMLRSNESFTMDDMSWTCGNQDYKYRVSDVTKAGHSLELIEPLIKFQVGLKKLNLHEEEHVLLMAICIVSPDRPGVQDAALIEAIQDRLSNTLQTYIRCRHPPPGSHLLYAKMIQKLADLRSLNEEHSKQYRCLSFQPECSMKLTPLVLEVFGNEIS
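The screen uses fluorescence polarization to detect compounds that interfere with recruitment of the SRC2-3 coactivator peptide to VDR; plates are read after 2 h at room temperature.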
* marks the source's active call; other numbers are inactive results; ? = inconclusive; & = joins results of further samples. On the % scale 0 is the no-effect control and ±100 the full control effect; potency means the concentration at half of the fitted maximal effect. Not all compounds are listed; rates above refer to the full screens.

SMILES | VDR inh
CCOC(=O)C(CCc1ccccc1)NC1CCc2ccccc2N(CC(=O)O)C1=O (configuration not stated) | 3%&-3%
CCOc1ccc(C(=O)COC(=O)CN2C(=O)NC3(CCCCC3C)C2=O)cc1 (configuration not stated) | 2%
CC1=[N+]([O-])C(C)(C)C(C)N(O)C1=O (configuration not stated) | 5%
COc1cc(-c2csc(C)n2)ccc1O | 2%
CCC1(C(=O)OC)NC(c2ccco2)C2C(=O)N(c3ccccc3)C(=O)C21 (configuration not stated) | -16%
CCNC(=S)Nc1cccc(F)c1C | ?
CCn1c(CSc2nc3ccccc3s2)nnc1SCC(=O)c1ccc(Cl)cc1 | ?
COC(=O)c1sccc1S(=O)(=O)N1CCN(c2cccc(C)c2C)CC1 | -2%
O=C(CC1C(=O)NCCN1Cc1cccc(C(F)(F)F)c1)NC1CCCCCC1 (configuration not stated) | 6%
CN(C)S(=O)(=O)c1ccc(Cl)c(C(=O)OCC(=O)NNC(=O)c2cccs2)c1 | -15%
COc1ccc(CNC(=O)CCSCc2cccc(F)c2)cc1 | -8%
CCCC(c1nnnn1Cc1cccs1)N1CCN(c2nc3ccccc3s2)CC1 (configuration not stated) | -2%
O=C(N/N=C/c1ccc(O)c(O)c1)c1cccc(S(=O)(=O)N2CCCCC2)c1 | -20%
COc1ccc(C(CNC(=O)c2oc3cc(Br)ccc3c2C)N2CCCCC2)cc1 (configuration not stated) | -6%&9%
COc1ccc(C)cc1NC(=O)C1CCCN(S(=O)(=O)c2cccc3nonc23)C1 (configuration not stated) | -15%
O=C(/C=C/c1ccccc1Cl)NCCN1CCOCC1 | 3%
CCn1cc([C@@H]2C[C@H]3CN(Cc4cccc(Cl)c4)C(=O)[C@]34CCCN24)c(C)n1 | -18%
CN1CCN(c2nc3c(c(=O)n(C)c(=O)n3C)n2CC(=O)C23CC4CC(CC(C4)C2)C3)CC1 | 4%
Nn1c(COc2ccccc2)nnc1SCc1cc(=O)[nH]c2ccccc12 | 1%
O=C(OCC(=O)N1CCCCCC1)c1ccc[nH]c1=O | 2%

Among those listed so far, these have an aryl thioether with sulfur outside any ring:
SMILES | VDR inh
CCn1c(CSc2nc3ccccc3s2)nnc1SCC(=O)c1ccc(Cl)cc1 | ?
Nn1c(COc2ccccc2)nnc1SCc1cc(=O)[nH]c2ccccc12 | 1%

By substructure: the entries above containing a furan ring, fused or not (2)
SMILES | VDR inh
CCC1(C(=O)OC)NC(c2ccco2)C2C(=O)N(c3ccccc3)C(=O)C21 (configuration not stated) | -16%
COc1ccc(C(CNC(=O)c2oc3cc(Br)ccc3c2C)N2CCCCC2)cc1 (configuration not stated) | -6%&9%

In the list so far, 4 contain an aryl methoxy group.
SMILES | VDR inh
COc1cc(-c2csc(C)n2)ccc1O | 2%
COc1ccc(CNC(=O)CCSCc2cccc(F)c2)cc1 | -8%
COc1ccc(C(CNC(=O)c2oc3cc(Br)ccc3c2C)N2CCCCC2)cc1 (configuration not stated) | -6%&9%
COc1ccc(C)cc1NC(=O)C1CCCN(S(=O)(=O)c2cccc3nonc23)C1 (configuration not stated) | -15%

Following part.
SMILES | VDR inh
COc1ccccc1CNC(=O)CSc1ncc2c(n1)-c1cc(Cl)ccc1N(Cc1ccccc1)S2(=O)=O | -6%
O=C(NCCCn1ccnc1)/C(=C\c1cccnc1)NC(=O)c1cccc(Br)c1 | 17%
COc1ccc(C(C)=O)cc1COc1ccc(-n2cnnn2)cc1 | -5%
O=C1[C@H]2CC3CCC2(O3)[C@@H]2OCCCN12 (some centres not stated) | 6%
COc1cccc(/C=N/NC(=O)c2ccc(=O)n(C)c2)c1OC | -5%
Cc1nc2sc3c(c2c(=O)n1N)CCC3 | -10%
NS(=O)(=O)c1ccc(N=Nc2c(O)ccc3ccccc23)cc1 | 3%
CCOC(=O)c1csc(NC(=O)CSc2nnnn2CC)n1 | -11%
COc1cccc(/C=C(/C(=O)OCC(N)=O)c2ccccc2)c1 | 6%
Cc1ccccc1NC(=O)CSC1=C(C#N)C(c2ccsc2)CC(=O)N1 (configuration not stated) | 8%
O=C(c1ccccc1)N1CCc2ccccc21 | 13%
Cc1ccc(Cn2nnnc2CN2CCC(O)(c3ccc(F)cc3)CC2)cc1 | -6%
O=C(COC(=O)c1cccs1)NCCC1=CCCCC1 | 4%
Cc1ccc(OCCc2csc(N)n2)cc1 | -8%
COc1ccc(C)cc1NS(=O)(=O)c1ccc2c(c1)N(C)CCO2 | 4%
FC(F)(F)c1ccc(Oc2ccc3c(C(F)(F)F)cc(C(F)(F)F)nc3n2)cc1 | -9%
Cc1cc(-n2cccn2)ccc1CN1CCN(C2CCCC2)C(CCO)C1 (configuration not stated) | -16%
Fc1ccc(CN2C3=NCCCN3c3ccccc32)cc1 | 9%
CC1CCCN(C(=O)COC(=O)COc2ccc(Cl)cc2)C1 (configuration not stated) | -9%
COc1cc(/C=N/NC(=O)c2ccncc2)ccc1OC(=O)c1ccccc1Cl | 2%
CCc1nnc(NC(=O)CSc2nc3c(cc2C#N)CCC3)s1 | 2%
COc1ccc(C(=O)NNC(=O)C(=O)Nc2ccc(C)cc2)cc1 | 0%
c1nc(N2CCOCC2)c2cc(-c3ccoc3)ccc2n1 | ?
Oc1ccc(-n2cnnn2)cc1 | 5%
CCCNc1nc(Cl)nc(Nc2ccc(Cl)cc2)n1 | 0%
Cc1cccc(C2c3[nH]c4ccccc4c3CCN2C(=O)c2cc(-c3cccn3C)n[nH]2)n1 (configuration not stated) | -4%
CCCOc1ccc(N2C(=O)CC(N(CCc3ccc(OC)cc3)C(=O)/C=C/C(=O)O)C2=O)cc1 (configuration not stated) | -2%
CCN(CC)S(=O)(=O)c1cc(C(=O)O)ccc1Cl | -4%
CCOc1ccc(CSCCNC(=S)Nc2ccc(OC)cc2)cc1 | -14%
COc1ccc(CCNS(=O)(=O)c2cc(-c3onc(C)c3C)ccc2OC)cc1OC | -10%
CCCC(=O)Nc1nnc(S(=O)(=O)N(CC)c2ccc(OC)cc2)s1 | 15%
CC1(C)CC2CC(C)(CN2C(=O)c2cc(-c3ccc(O)cc3)on2)C1 (configuration not stated) | -8%
N#Cc1ccc(S(=O)(=O)NC[C@H]2O[C@@H](n3cnc4c(N)ncnc43)[C@H](O)[C@@H]2O)cc1 | -1%
CSc1ccc(Cl)c(C(=O)NCCOc2ccccc2)c1 | -11%
CC(C)CN1C=C2C(=O)C(C)(OC(=O)CCc3ccccc3)C(=O)C=C2C=C1c1ccc(C#N)cc1 (configuration not stated) | -22%
FC(F)(F)c1nnc2ccc(N3CCOCC3)nn12 | -3%
Cc1cc(C(=O)N/N=C/c2ccc([N+](=O)[O-])o2)c(C)o1 | -19%
Cc1ccccc1C(=O)N(CC(=O)Nc1sc(C)c(C)c1C(N)=O)C1CCCC1 | -15%
Cc1cc(O)c(/C=N/Nc2ccccc2)c(=O)o1 | -9%
O=C1OC(Oc2ccc(Br)cc2)(c2ccccc2)c2ccccc21 (configuration not stated) | 12%

Copied from the list.
Reading of CSc1ccc(Cl)c(C(=O)NCCOc2ccccc2)c1 in VDR inh: -11%
Reading of O=C1OC(Oc2ccc(Br)cc2)(c2ccccc2)c2ccccc21 (configuration not stated) in VDR inh: 12%
Reading of Oc1ccc(-n2cnnn2)cc1 in VDR inh: 5%

Next part
SMILES | VDR inh
O=C(COC(=O)CNC(=O)c1ccc(Cl)cc1Cl)NC1CC1 | -13%
COc1ccc(CCNC(=O)CN2C(=O)CSc3ccc(S(=O)(=O)N4CCOCC4)cc32)cc1OC | -23%
CCOc1ccc(NS(=O)(=O)c2ccc(C(=O)NCC(c3ccccc3OC)N3CCCC3)cc2)cc1 (configuration not stated) | 8%
CCOc1ccc(N2CC(=O)N(c3ccc(OCC)cc3)CC2=O)cc1 | -1%
CCN(CC)C(=O)C(=O)c1cn(CC(=O)N2CCc3ccccc3C2)c2ccccc12 | -12%
CC1Cc2cc(S(=O)(=O)N3CCN(C)CC3)ccc2N1C(=O)C1CC1 (configuration not stated) | -7%
Cc1cccc(OCc2ccc(C(=O)Nc3ccc(F)cc3)cc2)c1 | -1%
CC(Oc1ccc(Cl)cc1)C(=O)Nc1ncccn1 (configuration not stated) | -6%
NC(=O)C1(N2CCCCC2)CCN(S(=O)(=O)c2ccc(Cl)s2)CC1 | -1%
CC(=O)Nc1ccc(S(=O)(=O)N2CCC(NC(C)=O)(c3cccc(F)c3)CC2)cc1 | 3%
COc1ccc(NC(=O)c2ccc3c(=O)n(-c4ccc(OC)cc4OC)c(=S)[nH]c3c2)c(OC)c1 | ?
Oc1ccc(-c2n[nH]c(=S)n2-c2ccc3c(c2)OCCO3)c(O)c1 | -1%
COc1cc(Cl)c(C)cc1NC(=O)Cn1c(NCCO)nc2ccccc21 | ?
O=C(c1cnccn1)N1CCC2(CCN(Cc3ccccc3)CC2)CC1 | 0%
N#CC1=C(N)OC2=C(C(=O)CCC2)C1c1cc2c(cc1Cl)OCO2 (configuration not stated) | 5%
CN(C(=O)COc1ncnc2sccc12)c1ccccc1 | -12%
CCOc1ccc(OCCC(=O)N(CC)CC(=O)NCc2ccc(Cl)cc2)cc1 | 11%
Cc1cc(-c2ccc(S(=O)(=O)Nc3cccc(Cl)c3C)cc2)on1 | 4%
Cc1cc(NC(=O)NCc2ccccc2)c(=O)n(Cc2ccc(F)cc2)c1 | 10%
COc1ccc(-n2c(Cc3cccn3C)nnc2SCC(=O)Nc2ccccc2OC)cc1 | 7%
Cn1c(SCC(=O)Nc2ccc3nc(SCC(=O)N4CCCC4)sc3c2)nnc1-c1ccc(N)cc1 | -9%
CCOC(=O)CN(Cc1sccc1C)C(=O)Nc1ccc(OC)cc1OC | -12%
Cc1ccc(C)c2[nH]c(=O)c(C(c3nnnn3CCc3ccccc3)N3CCOCC3)cc12 (configuration not stated) | 17%
COc1ccc(CCN(C)C(=O)c2ccc(S(=O)(=O)NCc3ccco3)cc2)cc1OC | -12%
CCn1c(=O)cc(N2CCCCC2)[nH]c1=O | -1%
Cc1cc(C)nc(NC(=O)/C=C/c2cccs2)c1 | 2%
O=C1[C@H]2[C@@H](c3ccc(Cl)cc3)N3C(=O)N(c4cccc(Cl)c4)C(=O)[C@@]3(Cc3ccccc3)[C@H]2C(=O)N1C1CCCCC1 | -17%
COc1ccc(CCN2CC(C(=O)NCC(c3ccccc3)N(C)C)CC2=O)cc1OC (configuration not stated) | 0%
COCCN(C(=O)Nc1ccccc1OC)c1nc2ccccc2s1 | -1%
CC(=O)c1cccc(NC(=O)CCn2nc(C)c(S(=O)(=O)N(C)C)c2C)c1 | 11%
CCN1C(=O)C(CC(=O)NCCc2ccccc2)N(NC(=O)c2cccnc2)C1=S (configuration not stated) | ?
Cc1ccc(NC2=C(Cl)C(=O)c3ccccc3C2=O)cc1 | -8%
CC(NC(=O)CN1c2cccc3cccc(c23)S1(=O)=O)c1ccc(S(N)(=O)=O)cc1 (configuration not stated) | -5%
CCN(CC(=O)Nc1ccc(OC)cc1)CC(=O)N1CC(=O)Nc2ccccc21 | -21%
O=C(c1cnn(-c2ccccc2)c1-n1cccc1)N1CCN(C2CCCCC2)CC1 | -14%
CCOc1cc(CN2CCC(n3nccc3NC(=O)C3CC3)CC2)ccc1O | -1%
Cc1cccc(OCC(=O)Nc2ccc(S(=O)(=O)Nc3onc(C)c3C)cc2)c1C | 25%&-25%
CCn1c2ccccc2c2cc(NC(=O)COC(=O)c3cc(Cl)c(N)cc3OC)ccc21 | -13%
COc1ccc(-c2csc(NC(C)c3nc4cc(Cl)c(N5CCCCC5)cc4n3CCOCCO)n2)cc1 (configuration not stated) | 7%
Cc1cc(=O)[nH]c(=O)n1Cc1ccccc1 | -12%
CCOc1ccc(CCNC(=O)c2ccc3nc(CC)c(CC)nc3c2)cc1 | -10%&11%
CCOC(=O)CON1C(=O)C(=O)N(OCC(=O)OCC)[C@H]2CCCC[C@H]21 | -13%
COc1ccc(CNC(=O)COC(=O)c2cc3ccccc3cc2O)cc1OC | -14%
Cc1ccc2oc(Nc3nc(C)c(C)c(C)n3)nc2c1 | -21%
COc1cc(NC(=O)CN2CC(c3ccccc3)CC2=O)cc(OC)c1 (configuration not stated) | 2%
CCN(CC)C(CNC(=O)CSc1nnnn1-c1ccc(C)c(C)c1)c1ccco1 (configuration not stated) | 2%
O=C(NCC1CCCO1)C(c1cccs1)N(Cc1cccs1)C(=O)Cn1nnc(-c2cccs2)n1 (configuration not stated) | 7%
Cn1nc(OCC(=O)O)cc1C(F)(F)F | 6%
CCN(CC)S(=O)(=O)c1ccc(C(=O)OCn2nnc3ccccc3c2=O)cc1 | 7%
COc1ccc(CCC(=O)OCC(=O)NCc2ccc(OC)c(OC)c2)cc1OC | 7%
CCc1cc(-c2onc(C)c2-c2cscn2)c(O)cc1OC | 0%
O=C1NN(c2cccc(Br)c2)C(=O)/C1=C\c1ccc(O)cc1 | ?
Cn1c(=O)cc(N)n(Cc2ccccc2)c1=O | -1%
Cc1cccc(CN2C(=O)c3ccccc3Sc3ccc(C(=O)N4CCCC4)cc32)c1 | 10%
COc1ccccc1-c1cc(C(=O)Nc2cc(Cl)ccc2O)no1 | -10%
O=C(NCc1ccccn1)C1CCN(S(=O)(=O)N2CCCC2)CC1 | -5%
CCc1ccc2oc(C(=O)NCCc3ccc(S(N)(=O)=O)cc3)cc(=O)c2c1 | -13%
CC(C)NC(=O)c1cc2c(-c3ccc(Cl)cc3)nn(C)c2s1 | 2%
CCc1nc(NCc2ccc3c(c2)OCO3)c2oc3ccccc3c2n1 | 11%
CN1CCN(CC(=O)Nc2ccc([N+](=O)[O-])cc2Br)CC1 | 1%
